# Bioassay records from PubChem BioAssay.
# NPR1 antag: Natriuretic polypeptide receptor (hNpr1) antagonism - Primary qHTS | Atrial natriuretic peptide receptor 1 (Homo sapiens), P16066 | HEK293 hNpr1 GloSensor cGMP, ANP-stimulated luminescence | Potency, µM (top dose mostly 46.3 µM), for the others: at the highest dose activity change, negative = inhibition, hits mostly inhibitors | hit rate 1.6% among 76,000 | AID 1347048, 2019; active = well fitted inhibition curve with a large enough effect; inconclusive = small, poorly fitted or top-dose-only effect; inactive = no such curve, though single readings can be large or run the other way;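 note: nearly all actives have a fitted effect of over 60% in size; nearly all hits also lower the signal before the agonist is added; a reference antagonist and vehicle were the controls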
# Target sequence (P16066 whole entry, looked up): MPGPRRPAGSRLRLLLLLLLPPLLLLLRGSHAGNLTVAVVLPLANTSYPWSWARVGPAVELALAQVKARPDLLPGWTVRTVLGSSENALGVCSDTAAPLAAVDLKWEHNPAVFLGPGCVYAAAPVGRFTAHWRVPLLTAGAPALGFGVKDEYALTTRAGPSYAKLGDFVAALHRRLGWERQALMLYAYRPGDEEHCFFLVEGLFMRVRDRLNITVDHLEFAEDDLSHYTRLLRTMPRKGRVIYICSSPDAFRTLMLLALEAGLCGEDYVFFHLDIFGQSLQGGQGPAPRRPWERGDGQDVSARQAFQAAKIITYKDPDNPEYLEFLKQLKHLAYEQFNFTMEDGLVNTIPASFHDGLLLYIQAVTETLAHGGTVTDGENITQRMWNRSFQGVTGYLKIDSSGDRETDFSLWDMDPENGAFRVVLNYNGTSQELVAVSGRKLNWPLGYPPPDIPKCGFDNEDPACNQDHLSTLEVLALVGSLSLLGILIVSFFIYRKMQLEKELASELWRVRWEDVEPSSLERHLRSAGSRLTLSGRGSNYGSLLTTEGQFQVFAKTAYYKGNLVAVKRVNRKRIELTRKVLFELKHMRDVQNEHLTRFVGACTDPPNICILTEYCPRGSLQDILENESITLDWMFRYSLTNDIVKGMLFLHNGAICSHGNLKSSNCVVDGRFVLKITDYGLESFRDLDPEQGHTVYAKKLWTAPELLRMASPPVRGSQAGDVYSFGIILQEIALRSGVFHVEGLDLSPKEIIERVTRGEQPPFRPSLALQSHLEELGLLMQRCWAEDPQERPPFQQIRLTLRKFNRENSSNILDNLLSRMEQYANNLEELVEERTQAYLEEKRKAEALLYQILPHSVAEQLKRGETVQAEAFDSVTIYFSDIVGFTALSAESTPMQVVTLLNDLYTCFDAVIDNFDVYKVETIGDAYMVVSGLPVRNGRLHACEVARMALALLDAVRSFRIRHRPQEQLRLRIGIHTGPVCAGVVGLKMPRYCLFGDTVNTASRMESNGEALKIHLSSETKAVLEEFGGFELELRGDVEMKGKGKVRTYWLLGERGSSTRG
#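 Compound pre-incubated 30 min at room temperature on GloSensor-loaded HEK293 cells stably carrying hNpr1 and the pGS-40F cGMP biosensor. Stimulation uses hNppA at 0.1 nM final; luminescence is taken at baseline and 20 min post-agonist.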
# An asterisk follows results filed as active; ? = inconclusive; [ ] = remark or other dose. % is set by controls: 0 for no effect and ±100 for the full control effect; potency is the fitted concentration of half-maximal effect. The list is partial, so the mix of outcomes need not match the whole.
NPR1 antag | SMILES
0% | Cc1ccc2[nH]c(=O)c(CCC(=O)N(C)Cc3cn(C)nc3C)cc2c1
1% | COc1ccccc1C(=O)NC1CCN(c2nnc3ccccn23)CC1
-9%[70.6 µM] | CN(C)Cc1ccc(-c2cc3c(ccn3Cc3cccnc3)c(C3=CCOCC3)n2)cc1
-3% | COc1ccccc1-c1nc(-c2nnn3c2COC(c2ccc(Cl)cc2)C3)no1 (centres undefined)
2% | COCCOC1CCN(C(=O)Cc2c[nH]c3ccccc23)CC1
1%[70.6 µM] | c1ccc(-c2ccc3ncc(Nc4ncccn4)n3n2)cc1
-3%[70.6 µM] | COc1ccc(CNC2(Cc3cc(CN(C)Cc4ccccc4)on3)COC2)c(O)c1
4% | CCOc1cccc(CN2CC[C@H](CNC(=O)NC)[C@H](N(C)C)C2)c1
0%[70.6 µM] | Cc1ccc(-n2nc3n(c2=O)CCN([S+](C)(=O)[O-])C3)cc1
-1% | CN(C)C(=O)C1CN(C(=O)Cc2ccccc2Cl)CC12CCOCC2 (centres undefined)
4% | O=C(CN1CCN(Cc2cnc(-c3ccccn3)nc2)CC1)N1CCCC1
-10% | CCOc1ccc(NC(=O)CC2CCOCC2)cc1
-1% | OCC1(CCc2ccccc2)CCNCC1
-4% | CCc1ccc(S(=O)(=O)N2c3ccccc3CC2c2nnc(C3CCOCC3)o2)cc1 (centres undefined)
14% | NC1CC(c2cc(N3CCN(c4cnccn4)CC3)nc(C3CC3)n2)C1 (centres undefined)
-21%[70.6 µM] | COc1ccc(NC(=O)C2(C)CCCc3cnc(Nc4ccccc4)nc32)cn1 (centres undefined)
9% | Cn1cnc(C(=O)N[C@@H]2CN(c3ncccn3)C[C@H]2CO)c1
-15%[70.6 µM] | O=C(Nc1ccccc1)N[C@H]1CO[C@H]2[C@@H]1OC[C@@H]2Nc1nccc(-c2cccs2)n1
-5% | COc1cc2c(cc1OC)C(C[C@H]1CN(C(=O)c3ccccc3)CC[C@H]1CC(=O)O)=NCC2
6% | COC(=O)[C@@H](Cc1cccnc1)NC(=O)[C@H]1CN(S(=O)(=O)c2ccccc2)CCN1C(=O)c1cccs1
16% | O=C(NC1CCCCC1)[C@@H]1C[C@@H](O)CN1C1CCN(C(=O)c2cccc3nccnc23)CC1
-2% | CCOc1ccc(CN2C[C@@H](COC)[C@H](C(=O)N(C)C)C2)cc1OC
4% | C[C@]1(CO)[C@H]2Cc3sc(NC(=O)c4ccco4)nc3[C@@H](CC(=O)N3CCC(C(N)=O)CC3)[C@]2(C)CC[C@H]1O
-3% | COCc1ncc(C)n1CCNC(=O)c1c(C)noc1C
5% | Cc1cc(C[C@@H]2COC[C@@H]2NC(=O)CCn2cnc3ccccc32)on1
4% | O=C(C1CCC1)N1CCCC(Nc2ccc(F)cc2)C1 (centres undefined)
2%[70.6 µM] | CC1(C)[C@H](Cc2cc(CN3CCN(c4ccccc4)CC3)on2)C[C@@H]1NCC1CC1
0%[70.6 µM] | COc1ncccc1-c1cc(C(=O)NCC2CCOCC2)c2c(c1)ncn2C
-14%[70.6 µM] | Cn1nccc1-c1cnc2n[nH]c(-c3ccc4c(c3)OCO4)c2n1
-1%[70.6 µM] | CC(=O)N1CCCn2nc(C)c(-c3ccccc3OCc3ccccc3)c21
-2%[70.6 µM] | O=C(NC[C@H]1O[C@@H]2C[C@@H](CC(=O)N3CCOCC3)O[C@@H]2[C@@H]1O)Nc1cccs1
? | Cc1nn2c(c1-c1ccccc1OCc1ccccc1)N(C(=O)COc1ccccc1)CCC2
0% | CCC(C)NC(=O)C(NC(=O)c1ccc2c(c1)OCO2)C1CCN(C(=O)c2ccccc2F)CC1 (centres undefined)
0% | Cc1ccccc1NC(=O)c1ccc2c(c1)N(C)C1CCCN1C2=O (centres undefined)
-7%[70.6 µM] | N#Cc1ccc(CN2C3CCC2CN(C(=O)c2ccncc2)C3)cc1
-1% | O=C1CCC(C(=O)N2CCCn3nc(C(=O)Nc4ccccc4)cc3C2)=NN1
1%[70.6 µM] | C[C@@H]1CN(C(=O)c2ccc3c(c2)NC(C)(COc2ccc4[nH]ccc4c2)CO3)C[C@H](C)O1 (some centres undefined)
-4% | Cc1nn(C)c(C)c1S(=O)(=O)N1CCC2(CC1)CC(Cc1cccc(F)c1)CCO2 (centres undefined)
-27% | Cc1cccc(C(=O)Nc2ccc3ncnc(N4CCCCC4)c3c2)c1
5% | COc1ccc(C(=O)NC2CCc3n[nH]c(=O)n3CC2)c(OC)n1 (centres undefined)
3% | CCC1(N2CCN(C(=O)c3ccc(N(C)C)cc3)CC2)CCN(S(C)(=O)=O)C1 (centres undefined)
? | COCc1nc(-c2ccc(OC3CCN(S(=O)(=O)c4ccccc4C)C3)cc2)no1 (centres undefined)
0% | CC(C)CCN1CCC(N2CCN(C(=O)CC3CCCCC3)CC2)C1=O (centres undefined)
1% | Cc1ccc(-c2cn[nH]c2C2CCCN(C(=O)CCCn3cnnn3)C2)cc1 (centres undefined)
-1% | Cc1ccc(C(=O)N2C[C@@H](COc3ccccc3)[C@H](C(N)=O)C2)nc1
-2%[70.6 µM] | COc1ccc2[nH]c(C[C@@H]3C[C@@H](C(C)C)[C@H](CNC(C)=O)C=C3C)nc2n1
-1% | CCNC(=O)CN1CCCC(CNC(=O)c2cccc(C(F)(F)F)c2)C1 (centres undefined)
-6%[70.6 µM] | CCCN(C)C(=O)c1c(-c2ccc(F)cc2)noc1[C@H](C)O
0% | O=C(NCCc1ccncc1)C1CN(C(=O)c2ccc(Cl)s2)CC12CCOCC2 (centres undefined)
-12% | CC(C)c1ccc([S+](=O)([O-])N2CC(CNC(=O)c3cnn(C)c3)C3(CN(c4ccccc4)C3)C2)cc1 (centres undefined)

# Sorted by the number under NPR1 antag (largest number first): some entries from above.
SMILES | NPR1 antag
NC1CC(c2cc(N3CCN(c4cnccn4)CC3)nc(C3CC3)n2)C1 (centres undefined) | 14%
COc1cc2c(cc1OC)C(C[C@H]1CN(C(=O)c3ccccc3)CC[C@H]1CC(=O)O)=NCC2 | -5%
CC(C)c1ccc([S+](=O)([O-])N2CC(CNC(=O)c3cnn(C)c3)C3(CN(c4ccccc4)C3)C2)cc1 (centres undefined) | -12%

# More compounds follow.
NPR1 antag | SMILES
1% | Cc1cnc(CCNC(=O)c2ccc(C#N)cc2)n1C1CCCC1
4% | Cc1ccc(NC(=O)Cn2ccn3nc(-c4ccc(F)cc4)c(CO)c3c2=O)cc1F
11% | O=[S+]1([O-])CCCN1C1CCN(Cc2ccc(C(F)(F)F)cc2)CC1
8% | O=C(C[C@@H]1O[C@H](CNC(=O)Nc2cccc(F)c2)[C@@H](O)[C@H]1O)NCCN1CCOCC1
-1% | Cc1cnc(C(=O)N2CCC(c3noc(-c4ccccn4)n3)C2)cn1 (centres undefined)
2% | CCc1ncc(C(=O)N[C@@H]2c3ccccc3C3(CCNCC3)[C@H]2OC)cn1
1% | COc1ccc(C(=O)N2CCCC(CN3CCC(C)CC3)CC2)cc1 (centres undefined)
-2%[70.6 µM] | O=C1NC2(CCN(C(=O)c3ccccc3F)CC2)Oc2ccccc21
-18% | COc1ccc(C(=O)N2CCC3(CC2)CC(OCC2CC2)CCO3)cc1 (centres undefined)
1% | CC(C)c1noc(-c2cn(C3CCN(C(=O)Cc4ccc(F)cc4)C3)nn2)n1 (centres undefined)
6% | Cc1cc2c(cc1C(=O)N1C[C@@H](C)[C@](O)(C3CCC3)C1)OCCO2
-2%[70.6 µM] | COCCn1c(=O)c2c(n1Cc1ccccc1)CN(C(=O)c1scnc1C)CC2
0%[70.6 µM] | O=C(c1ccno1)N1C[C@@H]2OCC(=O)N(c3ccccc3)[C@@H]2C1
-1% | Cc1ccc(C2Cn3nnc(C(=O)N4CCC(C(=O)NCc5ccc(F)cc5)CC4)c3CO2)cc1 (centres undefined)
7%[70.6 µM] | CN(C)CCN(C)CC[C@H]1CN(C(=O)C(C)(C)C)CC[C@H]1CC(=O)O
-1% | O=C1NC2(CN(Cc3ccccc3C(F)(F)F)C2)Oc2ccccc21
11% | O=C(CCc1nc(-c2ccco2)no1)N[C@@H]1CCOC[C@H]1OCC1CCC1
? | O=C1N[C@H](CC(=O)N2CCN(c3ccc(C(F)(F)F)cn3)CC2)C(=O)Nc2ccccc21
8% | C[C@@H]1CN(C(=O)c2ccc(-c3cnco3)cc2)CC[C@]1(C)O
2% | O=C1CCN(Cc2ccc(F)cc2F)CCCCCCN1
0% | O=C(NCCCc1ccccc1)c1n[nH]c2c1CN(C(=O)c1ccccc1Cl)CC2
2% | CC(C)(C)c1ccnc(N[C@H]2CO[C@H]3[C@@H]2OC[C@@H]3NC(=O)CC2(CC(=O)O)CCCC2)n1
-5% | CC(C)c1noc(-c2cn(C3CCN(C(=O)c4ccc(F)cc4)C3)nn2)n1 (centres undefined)
-2% | O=C1NCC(=O)N2CCN(C3CCN(Cc4ccco4)CC3)CC12 (centres undefined)
? | CN(Cc1ccc(-c2ccccc2)cc1)C(=O)C1CC1
-21% | Cc1ccccc1N1Cc2c(NCCOc3ccccc3)ncnc2N(C)CC1=O
-12% | CC(C)N(Cc1nccn1C)C(=O)c1cc(Cn2cnc3ccccc32)[nH]n1
5%[70.6 µM] | Cc1cc(C(=O)N[C@H]2[C@H](O)[C@H](O)C[C@@H]2c2ccc(N3CCOCC3)nc2)n(C)n1
-3% | CN1C(=O)CCCCC1C(=O)NCCc1c[nH]c2ccccc12 (centres undefined)
2% | O=C(c1cnco1)N(CC1CCN(Cc2ccccc2F)CC1)CC1CCCO1 (centres undefined)
0%[70.6 µM] | COc1cccc(CN2CCNc3cc(Nc4cccnc4)ncc3C2)c1
-2% | CCCn1cc(-c2ccncc2)cc1C(=O)NC(C)c1ccc(OC)cc1 (centres undefined)
1% | O=C(NCCN1CCCC1)c1nnn2cc(-c3ccccc3)[nH]c(=O)c12
-2% | Cc1cccnc1C(=O)N1C[C@@H](CO)[C@H](c2ccccn2)C1
5% | CN1C(=O)c2cccn2CC1CNC(=O)c1cccn1C (centres undefined)
5% | O=C(NCc1nnc2cc(-c3nc(C4CC4)no3)ccn12)c1ccc(Cl)cc1
? | COc1ccc(CN2C=C(C(=O)OCc3noc(-c4ccc(C)c(C)c4)n3)C(C)=NS2(=O)=O)cc1
-6% | Cc1ccc(NC(=O)Cn2c(N3CCCCC3)nc(C)c(C)c2=O)c(C)c1
-11% | COc1cccc(CC(=O)N2CCCC(c3nc(-c4ccccc4)no3)CCNC(=O)CC2)c1 (centres undefined)
3%[70.6 µM] | Cc1noc(C)c1Cn1cc2c3c(cccc31)[C@H](CC(C)C)N[C@H](C(=O)O)C2
-2% | COc1ccccc1N1CCN(C(=O)[C@@H]2Cc3c[nH]c4cccc(c34)[C@H](CC(C)C)N2)CC1
-11% | COCC(=O)N[C@@H]1CN(Cc2cccc(OC)n2)CC[C@@H]1c1nc(C)no1
4% | Cc1noc(C)c1S(=O)(=O)N1CCCCC1CCn1cccn1 (centres undefined)
4% | NCCC1CCN(C(=O)Nc2ccccc2F)CC1
2% | COc1ccc(C(=O)N2CCCC3(C2)Nc2cccnc2NC3=NCc2ccccc2)cn1 (centres undefined)
2%[70.6 µM] | Cn1nccc1-c1ccc2ncn(-c3ccc(F)cc3F)c(=O)c2n1
-12% | O=C(CCc1ccc(O)cc1)N[C@H]1CC[C@H](Nc2nccc(-c3cccnc3)n2)C1
8% | CN(C)C[C@@H]1CN(C)C[C@H]1NC(=O)Cc1cccc(Cl)c1
-1%[70.6 µM] | NC(=O)CN1C(=O)CO[C@H]2CN(Cc3ccccc3F)C[C@H]21
-1%[70.6 µM] | CC(C)NC(=O)Nc1ccc([C@H]2OCC(=O)N(CCN)[C@@H]2CO)cc1

# Quoted from the listing.
# NC(=O)CN1C(=O)CO[C@H]2CN(Cc3ccccc3F)C[C@H]21 in NPR1 antag is listed with -1%[70.6 µM]
# CN(C)C[C@@H]1CN(C)C[C@H]1NC(=O)Cc1cccc(Cl)c1 in NPR1 antag is listed with 8%
# NCCC1CCN(C(=O)Nc2ccccc2F)CC1 in NPR1 antag is listed with 4%
# Cc1cccnc1C(=O)N1C[C@@H](CO)[C@H](c2ccccn2)C1 in NPR1 antag is listed with -2%
# COc1ccc(C(=O)N2CCCC3(C2)Nc2cccnc2NC3=NCc2ccccc2)cn1 (centres undefined) in NPR1 antag is listed with 2%
# COc1ccccc1N1CCN(C(=O)[C@@H]2Cc3c[nH]c4cccc(c34)[C@H](CC(C)C)N2)CC1 in NPR1 antag is listed with -2%

# Additional entries.
NPR1 antag | SMILES
-11% | O=C(NCCc1ccccn1)C1c2ccccc2C(=O)N(C2CCCCC2)C12CCCCC2 (centres undefined)
1% | CCn1c(=O)c2ccnn2c2ccc(C(=O)O)cc21
-3% | Cc1c(CN2CCCC(COc3ccccc3C(=O)N3CCC(C)CC3)C2)cnn1C (centres undefined)
7% | Cc1cccc(CNC(=O)C2(c3ccc(NS(C)(=O)=O)cc3)CCCCC2)c1
7.1µM* | CCNC(=O)N[C@@H]1C=C[C@@H](c2c(C)nn(-c3ccc(C(C)C)cc3)c2C)C1
-27% | O=C(c1ccc(F)c(F)c1)N1CCC(n2cc(-c3nc(C4CC4)no3)nn2)C1 (centres undefined)
-11%[70.6 µM] | CC1(CNc2ccccc2)COc2ccc(C(=O)NCCc3cnc[nH]3)cc2N1 (centres undefined)
18µM* | CCCCN(C)C(=O)CCC1CCN(c2cc(NC3CC3)ncn2)CC1
-3% | Cc1ccc(-c2nc(C(=O)N3CCN(c4ccccn4)CC3)no2)cc1

# Shown with bars between the fields: part of the list above
Structure | NPR1 antag
CCCCN(C)C(=O)CCC1CCN(c2cc(NC3CC3)ncn2)CC1 | 18µM*
Cc1ccc(-c2nc(C(=O)N3CCN(c4ccccn4)CC3)no2)cc1 | -3%
